TRPML1 blocker – human mucolipin-1 channel inhibition. TRPML1-inducible cells, Ca2+ dye fluorescence, FDSS; active compounds read low; inhibition of EC80 agonist-evoked calcium signal. AID 624415. hit rate 0.02% among 390,000. activity change, negative = inhibition, % (no concentration beside the values); in the data active means activity change below about -50%; inconclusive means about -30% to -50%; inactive means above about -30%;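 also: stimulus is agonist 54-4 at its EC80 concentration; % is scaled to controls: 0 for no effect and ±100 for the full control effect; compound concentration not given in the record; the text of the record puts the active cut at -80%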
Target sequence (Q9GZU1 whole entry, looked up): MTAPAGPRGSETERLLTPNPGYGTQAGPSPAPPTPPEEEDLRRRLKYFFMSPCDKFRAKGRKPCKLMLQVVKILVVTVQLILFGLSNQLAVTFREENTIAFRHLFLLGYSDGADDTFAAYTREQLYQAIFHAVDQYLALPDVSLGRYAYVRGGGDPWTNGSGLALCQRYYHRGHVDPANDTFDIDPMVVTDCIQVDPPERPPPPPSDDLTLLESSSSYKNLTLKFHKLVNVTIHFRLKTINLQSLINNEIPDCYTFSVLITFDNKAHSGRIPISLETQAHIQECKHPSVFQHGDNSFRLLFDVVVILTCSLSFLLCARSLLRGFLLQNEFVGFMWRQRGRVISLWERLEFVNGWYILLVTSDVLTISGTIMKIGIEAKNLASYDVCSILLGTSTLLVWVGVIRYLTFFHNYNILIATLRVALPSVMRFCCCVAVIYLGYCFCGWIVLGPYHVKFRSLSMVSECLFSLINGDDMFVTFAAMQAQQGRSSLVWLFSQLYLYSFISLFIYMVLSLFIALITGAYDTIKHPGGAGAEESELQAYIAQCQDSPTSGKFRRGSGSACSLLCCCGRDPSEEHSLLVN
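TRPML1-DL cells, Tet-induced overnight (~16 h, 37 °C) at 1,500 cells/well, were loaded with Ca8 no-wash dye plus quencher for 45-90 min at room temperature. Compounds were pinned during FDSS kinetic reading; agonist 54-4 at EC80 (4 uM final) then added.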
D2 agonist – activates the human D2 dopamine receptor; P14416; DiscoveRx PathHunter D2 beta-arrestin, luminescence, 90 min; 100% = 57 uM dopamine signal; activation, % (concentration not given with the values); hit rate 0.084% among 360,000; AID 624465; in the data active = activation above about 40%; inconclusive = about 15% to 40%; inactive = below about 15%; also: compound concentration not given in the record; the text of the record calls up to 30% inactive
Target sequence (P14416 whole entry, looked up): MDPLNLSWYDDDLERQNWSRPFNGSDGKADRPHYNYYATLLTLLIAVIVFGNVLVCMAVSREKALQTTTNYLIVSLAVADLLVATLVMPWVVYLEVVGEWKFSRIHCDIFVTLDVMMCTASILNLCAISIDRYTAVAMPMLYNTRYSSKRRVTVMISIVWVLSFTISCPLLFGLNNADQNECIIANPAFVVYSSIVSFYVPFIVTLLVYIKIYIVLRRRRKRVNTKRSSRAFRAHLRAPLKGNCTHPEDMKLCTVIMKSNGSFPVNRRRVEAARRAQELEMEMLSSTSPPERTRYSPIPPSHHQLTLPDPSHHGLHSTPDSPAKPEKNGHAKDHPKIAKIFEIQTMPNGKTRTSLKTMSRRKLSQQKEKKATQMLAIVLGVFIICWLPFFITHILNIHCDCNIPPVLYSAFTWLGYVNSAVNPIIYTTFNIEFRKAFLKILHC
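Agonist mode: compounds alone added to overnight-plated D2 PathHunter cells for 90 min at 37 C, with 57 uM final dopamine (EC100) defining full response. Beta-arrestin recruitment detected by chemiluminescent reagent, read after 1 h at ambient temperature.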
PINK1 expr mod – changes PINK1 expression | PINK1 immunofluorescence, high-content cytometry, 24 h | Potency, µM (top dose mostly 76.6 µM), for the others: at the top dose activation (PINK1 increase), hits mostly activators | hit rate 0.2% among 410,000 | AID 624263; active = well fitted activation curve with a large enough effect; inconclusive = small, poorly fitted or top-dose-only effect; inactive = flat fitted curve, though single readings scatter; cell line not stated here;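 also: potency is read from the fitted curve at half-maximal effect; % of control where 0% means no effect; nearly all actives have a fitted effect of over 65% in size; a mitochondrial uncoupler was the plate control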
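Fluorescence from anti-PINK1 antibody, together with nuclear and cell stains, was scanned on a laser-scanning cytometer. Before staining, stable-line cells were incubated 24 hours with compounds at 5 concentrations; primary antibody 12 h at 10 degrees C.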
TRPML1 ag – activates the human TRPML1 channel. TRPML1-expressing cells, Ca2+ dye fluorescence, FDSS; host cell line not named in the record; reference of the full effect not given here. activation, % (no concentration beside the values). hit rate 0.12% among 410,000; in the data active = activation above about 50%; inconclusive = about 30% to 50%; inactive = below about 30%; also: 0% is about no effect; the text of the record puts the active cut at 80%
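In this qHTS format, compounds were pin-transferred onto Ca8-dye-loaded TRPML1-DL cells induced with Tet overnight, and intracellular Ca2+ fluorescence was recorded kinetically for 110 s after a 10 s baseline. A subsequent 4uM final 54-4 (EC80) addition followed by a second 110 s read served as the antagonist phase.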
Six1-Eya2 blk – Six1/Eya2 interaction inhibition | Q15475+O00167 | AID 651725 | AlphaScreen GST-Six1/His-Eya2 binding, biochemical; active compounds read low; control for the full effect not named in the record | activity change, % (test concentration not listed) | hit rate 0.56% among 360,000; in the data active = activity change below about -65%; inconclusive = about -30% to -65%; inactive = above about -30%; also: % is scaled to controls: 0 for no effect and ±100 for the full control effect
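Six1/Eya2 binding was read as AlphaScreen signal after compounds were pinned into GST-Six1 plus His-tagged Eya2 (5X stock 250/500 nM) in pH 8.0 Tris/NaCl/TCEP buffer, beads added, then incubated 1 h, 37 C, dark.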
D2 PAM – potentiates the human D2 dopamine receptor allosterically | P14416 | DiscoveRx D2 beta-arrestin cells, luminescence, 90 min; 100% = 57 uM dopamine signal | potentiation, % (no concentration beside the values) | hit rate 0.23% among 360,000 | AID 624464; active = potentiation of 50% or more; inconclusive = 30% to 50%; inactive = 30% or less;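 also: compound concentration not given in the record; tested on top of an EC20 dose of dopamine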
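PathHunter beta-arrestin assay in DiscoveRx D2 cells. Compounds were added with an EC20 of dopamine (50 nM final) for 90 min at 37 deg C. Luminescence was read 1 h after detection reagent, with 57 uM dopamine as the EC100 control.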
Numbers without * were called inactive; ? = inconclusive; . = no result given; [ ] = dose if it differs, or a comment. Rows are unselected (roughly 1% active in at least one column).

SMILES	TRPML1 blocker	D2 agonist	PINK1 expr mod	TRPML1 ag	Six1-Eya2 blk	D2 PAM
CC1C(=O)N2CCCc3cc(S(=O)(=O)N(C)CCC#N)cc1c32 (stereo unspecified)	1	-5.2	1.8%	0.1	-1	-5
Cc1cc(C)cc(N(C(=O)c2ccco2)C(C(=O)NC2CCCC2)c2ccncc2)c1 (stereo unspecified)	-5	-0.8	-0.6%	-0.3	0	8
Cc1ccc(C(=O)N[C@H](C(=O)Nc2cccc(S(=O)(=O)N3CCOCC3)c2)C(C)C)cc1	2	-3.7	2.3%	0.2	4	-11
COc1ccnc(N2CCN(c3ccc(Cl)cc3)CC2)c1C#N	14	0.6	10%[38.3 µM]	-0.4	3	-3
COc1ccc(Nc2nc3ccccc3nc2NS(=O)(=O)c2ccc(C)cc2)c(OC)c1	-20	.	-5.3%	2.8	.	.
Cc1cc2ncn(S(=O)(=O)c3ccc(S(N)(=O)=O)cc3)c2cc1C	3	2.5	-2.3%	0.2	18	-13
CCOC(=O)c1cnc2c(C)cc(C)cc2c1NCCCN1CCOCC1	.	-2.5	1.5%	.	4	-51
CSc1ccccc1OCc1cc(C(=O)NCCc2ccco2)no1	4	0.9	6.3%	3.6	-7	-12
O=C(O)CCCN1C(=O)/C(=C/C=C/c2ccco2)SC1=S	-24	-3.9	2.0%	-0.1	?	3
Cc1c(NC(=O)C(C#N)=C2CCCCC2)c(=O)n(-c2ccccc2)n1C	13	-2.3	1.3%	8.5	3	12
CC(=O)NC(c1ccccc1)c1nc(-c2cccs2)cs1 (stereo unspecified)	.	2.0	1.0%	-0.3	6	-4
COc1ccc(OCC(O)CN2CC(C)OC(C)C2)cc1 (stereo unspecified)	18	5.1	2.6%	-0.9	-1	-4
O=C(/C=C/c1ccccc1)Nn1cnnc1	-17	0.7	3.3%	-0.3	2	-4
COc1ccc(Cl)cc1C(=O)NCC(c1ccco1)N(C)C (stereo unspecified)	-1	-5.5	0.4%	-0.8	-2	-18
CN(C)CCN(C(=O)c1ccc2c(c1)CCCC2)c1nc2cc3c(cc2s1)OCCO3	32	6.4	?	0.5	?	-7
O=C(CCCOc1ccccc1)N1CCCCC1	-1	-1.3	1.6%	-0.2	6	-3
Cc1ccc(C(=O)Nc2nc3ccccc3c(=O)s2)cc1	-5	-3.4	11%[38.3 µM]	-0.1	5	-14
CNc1nc2ccccc2n(C)c1=O	-4	-6.7	2.0%	0.1	21	0
COc1ccc(CCNC(=O)C2CCN(S(=O)(=O)c3ccc(OC)cc3)CC2)cc1	34	-3.0	-0.2%	1.5	1	-1
CCOC(=O)c1ccc(NC(=O)C2Cc3ccccc3C(=O)O2)cc1 (stereo unspecified)	10	.	0.0%	0.5	.	.

Compound profiles, as listed above.
CN(C)CCN(C(=O)c1ccc2c(c1)CCCC2)c1nc2cc3c(cc2s1)OCCO3 is entered as TRPML1 blocker: 32; D2 agonist: 6.4; PINK1 expr mod: ?; TRPML1 ag: 0.5; Six1-Eya2 blk: ?; D2 PAM: -7
COc1ccc(CCNC(=O)C2CCN(S(=O)(=O)c3ccc(OC)cc3)CC2)cc1 is entered as TRPML1 blocker: 34; D2 agonist: -3.0; PINK1 expr mod: -0.2%; TRPML1 ag: 1.5; Six1-Eya2 blk: 1; D2 PAM: -1

Shown with bars between the fields: part of the list above
compound | TRPML1 blocker | D2 agonist | PINK1 expr mod | TRPML1 ag | Six1-Eya2 blk | D2 PAM
O=C(O)CCCN1C(=O)/C(=C/C=C/c2ccco2)SC1=S | -24 | -3.9 | 2.0% | -0.1 | ? | 3
Cc1c(NC(=O)C(C#N)=C2CCCCC2)c(=O)n(-c2ccccc2)n1C | 13 | -2.3 | 1.3% | 8.5 | 3 | 12
CC(=O)NC(c1ccccc1)c1nc(-c2cccs2)cs1 (stereo unspecified) | . | 2.0 | 1.0% | -0.3 | 6 | -4
COc1ccc(OCC(O)CN2CC(C)OC(C)C2)cc1 (stereo unspecified) | 18 | 5.1 | 2.6% | -0.9 | -1 | -4
O=C(/C=C/c1ccccc1)Nn1cnnc1 | -17 | 0.7 | 3.3% | -0.3 | 2 | -4
COc1ccc(Cl)cc1C(=O)NCC(c1ccco1)N(C)C (stereo unspecified) | -1 | -5.5 | 0.4% | -0.8 | -2 | -18

Continued.
SMILES	TRPML1 blocker	D2 agonist	PINK1 expr mod	TRPML1 ag	Six1-Eya2 blk	D2 PAM
COc1ccc(C(CNC(=O)c2cc3ccccc3cc2OC)N2CCCC2)cc1 (stereo unspecified)	-4	-5.5	2.0%	-0.3	-12	-47
O=S(=O)(Nc1ccc(-n2cnnn2)cc1)c1cccc(Cl)c1	-10	-0.7	0.8%	0.5	-3	-18
Cc1cc(C)n(Cc2ccc(F)cc2)c(=O)c1C#N	-1	2.4	2.2%	-0.2	8	-16
CCC(=O)Nc1c2c(nn1-c1ccccc1C)CSC2	8	-1.1	1.1%[38.3 µM]	-0.4	0	4
O=C(Nc1ccccc1)c1cc([N+](=O)[O-])ccc1NCc1cccnc1	18	-4.1	-0.5%	1.6	-15	-21
CCCOc1ccc(C(=O)NCC(c2ccc(OC)cc2)N2CCCCC2)cc1 (stereo unspecified)	21	.	-0.5%	-1.0	.	.
CCOc1ccc(C(F)(F)F)cc1NC(=O)COc1ccc(C(F)(F)F)cc1[N+](=O)[O-]	11	0.8	0.2%	0.2	9	0
Cc1ccc2nc(-c3ccc(C)s3)c(Nc3ccc4c(c3)OCCO4)n2c1	-1	.	-4.1%	2.8	.	.
Cn1c(N/N=C/c2cccs2)cc(=O)n(C)c1=O	2	-4.8	-0.4%	1.8	-16	-2
C[C@H](O)[C@@H]1C(=O)N2CCc3ccc(-c4ccccc4)cc3[C@@H]2C[C@@H]1N(C)C(=S)Nc1ccc(F)cc1	2	-8.8	0.4%	0.0	-9	0
CN(C)CCCN1c2ccccc2Sc2ccc3ccccc3c21	-5	-0.8	-6.8%	3.2	2	-28
O=C1C(=Cc2ccccn2)CCc2ccccc21	7	-4.3	-1.4%	-0.6	-15	-23
COc1ccc(C(=O)NC(=S)Nc2cccnc2)cc1[N+](=O)[O-]	5	-4.7	-0.3%	-0.4	6	-7
COCCN1C(=O)C(=O)/C(=C(/O)c2ccc(S(=O)(=O)N3CCCCC3)cc2)C1c1ccc(OC)c(OC)c1 (stereo unspecified)	13	0.4	-0.5%	0.7	10	-6
Fc1ccccc1-c1csc(-c2cccnc2)n1	-13	-3.4	0.5%	0.9	22	-6
CC(OC(=O)CNC(=O)C12CC3CC(CC(C3)C1)C2)C(=O)Nc1ncc(Cl)cc1Cl (stereo unspecified)	3	1.5	11%[38.3 µM]	-0.5	2	-1
NC(=S)NN=C(Cc1ccccc1)Cc1ccccc1	17	-2.3	1.1%	0.9	-16	-13
COc1ccc(C(=O)N(Cc2ccc(N(C)C)cc2)C2CCS(=O)(=O)C2)cc1 (stereo unspecified)	6	-0.2	0.2%	-0.3	0	-5
Cc1ccc[n+](C(C)C(=O)Nc2ccc([N+](=O)[O-])cc2C)c1 (stereo unspecified)	7	-3.1	3.0%	0.2	-3	-9
COCCN(C(=O)COC(=O)COc1ccc(Cl)c(C)c1)c1c(N)n(Cc2ccccc2)c(=O)[nH]c1=O	-10	-2.6	-1.1%	-0.3	6	7
CCCSc1oc(-c2ccco2)nc1S(=O)(=O)c1ccccc1	-3	1.8	1.2%[38.3 µM]	1.7	-1	-2
OCCNC(=S)NC1CCCCC1	8	-0.5	-1.8%	0.5	-7	7
Cc1oc2c(c1C(=O)Nc1ccccc1Br)C1=NCCN1C=N2	5	.	1.9%	-1.1	.	.
CCn1c2ccccc2c2cc(NC(=S)N3CCOCC3)ccc21	-14	-1.0	0.4%	-0.3	-14	5
c1ccc2c(c1)nc1n2CCN1	21	-2.3	1.9%	0.5	6	-12
Cc1nnc(SCC(=O)Nc2cc(-c3cc(C)c(C)cc3C)nn2-c2ccccc2)s1	-9	6.6	1.3%	-0.9	-6	-5
N/C(=N\c1nc2ccccc2o1)NC(=O)c1ccc([N+](=O)[O-])cc1	15	0.6	11%	10	0	-1
C[C@H](O)Cc1cc2ccccc2c(=O)o1	-9	-1.1	1.3%	-0.4	-6	-2
COc1ccc(C)cc1NC(=O)C(=O)c1cn(CC(=O)N2CCCC2)c2ccccc12	-6	-5.3	?	2.0	-14	-6
CCOC(=O)c1cccc(NC(=O)COc2nsnc2N2CCOCC2)c1	-10	5.5	0.7%	-0.1	-18	-1
O=C(c1ccc2ccccc2c1)C1CCCN(C(=O)c2noc3c2CCCC3)C1 (stereo unspecified)	-13	0.3	0.4%	0.2	-3	7
Oc1c(C=Nc2cccc3nsnc23)ccc2ccccc12	-14	4.5	0.2%	-0.3	-18	?
CCC(C)(C)C(=O)Nc1cc([N+](=O)[O-])ccc1F	93	-2.4	-1.3%	-0.7	-3	9
Cc1cc(N2CCOCC2)nc2ccc(NC(=S)NCc3ccc4c(c3)OCO4)cc12	5	5.3	2.0%	1.5	-9	5
CC1=C(C(=O)Nc2ccccc2C)C(c2sccc2C)n2ncnc2N1 (stereo unspecified)	14	.	-5.1%	1.3	.	.
Cc1ccsc1/C=N/NC(=O)c1ccc2c(c1)OCCO2	3	-0.3	3.0%	0.8	-3	-13
O=c1c(=O)n(Cc2ccc(Cl)cc2)ccn1Cc1ccc(F)cc1	-9	.	1.4%	2.9	.	.
COc1ccc(C)cc1NS(=O)(=O)c1ccc(NC(=O)CN(c2cc([N+](=O)[O-])ccc2C)S(C)(=O)=O)cc1	-5	0.5	11%	1.7	-2	-6
Cc1ccccc1NC(=O)c1cn2c(nc3ccccc32)c(C#N)c1C	-28	-2.9	?	0.2	-1	2

An excerpt of these results, comma-delimited.
compound,TRPML1 blocker,D2 agonist,PINK1 expr mod,TRPML1 ag,Six1-Eya2 blk,D2 PAM
Cc1ccsc1/C=N/NC(=O)c1ccc2c(c1)OCCO2,3,-0.3,3.0%,0.8,-3,-13
O=c1c(=O)n(Cc2ccc(Cl)cc2)ccn1Cc1ccc(F)cc1,-9,.,1.4%,2.9,.,.
